Screening results as filed in PubChem.
Mtb MenB inh – blocks the Mycobacterium tuberculosis MenB enzyme | AID 540299 | MenB enzyme assay, absorbance read-out; some hits fall short of the stated cut | 100,000 compounds, 0.43% hits | inhibition, %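 (about 12 µg/mL by stock and volumes)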;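 active = mean of two replicates above 30%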;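 note: 0% = no compound and 100% = wells with inactive enzyme; the first replicate is given; strong numbers were not always called active; inactives centre near -10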
Target sequence (P9WNP5 whole entry, looked up): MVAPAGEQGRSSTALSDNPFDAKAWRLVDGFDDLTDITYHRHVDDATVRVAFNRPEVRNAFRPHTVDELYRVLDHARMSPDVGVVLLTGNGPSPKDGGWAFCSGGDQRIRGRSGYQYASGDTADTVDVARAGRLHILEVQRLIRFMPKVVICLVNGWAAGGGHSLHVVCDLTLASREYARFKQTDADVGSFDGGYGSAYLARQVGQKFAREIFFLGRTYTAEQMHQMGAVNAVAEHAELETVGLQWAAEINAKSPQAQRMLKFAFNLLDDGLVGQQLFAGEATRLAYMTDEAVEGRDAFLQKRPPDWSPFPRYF
MbtI inh – inhibitors of Mycobacterium tuberculosis siderophore enzyme MbtI | P9WFX0 | purified MbtI enzyme, fluorescence intensity read-out | inhibition, %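 (about 17 µg/mL by stock and volumes)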 | 100,000 compounds, 0.89% hits | AID 493033;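 active = above 50% in both replicates, above 80% if mildly self-fluorescent; inactive = the rest, strongly fluorescent compounds included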;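 note: 0% = mean of negative and 100% = mean of positive controls; one replicate is shown; some compounds called inactive have numbers as strong as hits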
Polio RdRp inh – poliovirus RNA polymerase inhibition; poliovirus polymerase elongation, fluorescence polarization; stronger effect = lower value; % elongation, % (compound at 16.7 µg/mL); 150,000 compounds, 0.66% hits; in the data active = % elongation below about 90%; note: some results filed as inactive read as strong as hits
Target sequence (P03300 1749-2209 limits assumed): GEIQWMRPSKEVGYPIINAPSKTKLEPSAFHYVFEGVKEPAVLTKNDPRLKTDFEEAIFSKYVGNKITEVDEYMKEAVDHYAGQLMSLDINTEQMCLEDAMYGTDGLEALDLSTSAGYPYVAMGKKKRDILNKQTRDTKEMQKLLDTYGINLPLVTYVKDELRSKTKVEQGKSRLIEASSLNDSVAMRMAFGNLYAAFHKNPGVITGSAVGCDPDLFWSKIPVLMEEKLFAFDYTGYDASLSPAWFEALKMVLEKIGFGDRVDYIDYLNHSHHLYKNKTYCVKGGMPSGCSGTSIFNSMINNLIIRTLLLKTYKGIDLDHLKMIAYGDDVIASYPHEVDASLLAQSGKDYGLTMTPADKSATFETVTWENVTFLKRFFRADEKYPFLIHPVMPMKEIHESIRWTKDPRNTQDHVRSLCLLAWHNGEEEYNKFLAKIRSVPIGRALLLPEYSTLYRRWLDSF
Polio RdRp inh intensity – also measured in Polio RdRp inh; calls as there; % elongation; measured here: total intensity read-out; formula for this scale not given here;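 total fluorescence in place of polarization; lower means less elongation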
Numbers without * were called inactive; . = no result given; & = joins results of further samples.

SMILES	Mtb MenB inh	MbtI inh	Polio RdRp inh	Polio RdRp inh intensity
COC(=O)CNC(=O)c1cc(-c2ccc3c(c2)OCO3)nc2c(C)c(Cl)ccc12	-23.6	-21.0	103.0	103.0
Cc1ccc(OC(=O)c2cccc(S(=O)(=O)N3CCOCC3)c2)c(-n2nc3ccccc3n2)c1	-5.6	-7.8	99.0	101.0
CN(C)C1(c2nnnn2CCOC(=O)Nc2ccc(Cl)cc2)CCCCC1	-28.1	-12.6	102.0	104.0
C=CCN=C1SC(C)C(=O)N1S(=O)(=O)c1ccccc1 (configuration not stated)	-14.9	4.3	100.0	101.0
CCn1c(SCC#N)nnc1-c1cccc(C)c1	19.4	3.5	102.0	103.0
CC(C)CN(CC(C)C)C(=O)CSc1nnc(-c2cccc(Cl)c2)n1N	7.2	11.8	.	.
Cc1cc2cc(CCNS(=O)(=O)c3ccccc3)c(=O)[nH]c2cc1C	-17.5	18.6	99.0	103.0
O=C(NCC(F)(F)C(F)F)c1ccncc1	14.8	-5.4	99.0	102.0
Cc1cc(C)nc(N2Cc3ccccc3C2=N)n1	.	-7.6	99.0	95.0
CCN(CC)Cc1c(O)ccc2cc(-c3ccc(OC)c(OC)c3)c(=O)oc12	-109.0	-55.5	93.0	117.0
Cn1c(=S)[nH]c2c(c1=O)C1(CCCC1)Cc1ccccc1-2	-33.8	-1.1	102.0	105.0
O=C(C1CCN(Cc2cnn(-c3ccccc3)c2-n2cccc2)CC1)N1CCN(c2ccccc2)CC1	12.5	1.5	101.0	101.0
Cc1ccc(C=C(C#N)C#N)o1	-65.8	-2.1	97.0	97.0
CC(C)NC(=O)c1cccnc1Nc1cccc(C(F)(F)F)c1	-36.2	5.4	102.0	91.0
Cc1ccc(S(=O)(=O)N2CCN(S(=O)(=O)N(C)C)CC2)cc1	4.6	13.8	102.0	104.0
Cc1cc(C)n(CCCNC(=O)Cn2cnc3ccccc3c2=O)n1	1.2	4.8	105.0	103.0
COc1cc2c(cc1OC)C1CCCN1C(C)(C)C2 (configuration not stated)	-13.8	12.8	101.0	98.0
CN(C)C(=O)C1CCCN1 (configuration not stated)	-14.8	-4.0	100.0	105.0
COc1ccc(C)cc1S(=O)(=O)NCC(c1ccco1)N1CCc2ccccc2C1 (configuration not stated)	-28.4	-0.2	102.0	106.0
CCOC(=O)N1CCC(n2ccc3nc(SC)ncc3c2=O)CC1	6.8	11.9	100.0	102.0

Brought forward from above: six entries, then new ones.
SMILES	Mtb MenB inh	MbtI inh	Polio RdRp inh	Polio RdRp inh intensity
Cc1ccc(S(=O)(=O)N2CCN(S(=O)(=O)N(C)C)CC2)cc1	4.6	13.8	102.0	104.0
Cc1cc(C)n(CCCNC(=O)Cn2cnc3ccccc3c2=O)n1	1.2	4.8	105.0	103.0
COc1cc2c(cc1OC)C1CCCN1C(C)(C)C2 (configuration not stated)	-13.8	12.8	101.0	98.0
CN(C)C(=O)C1CCCN1 (configuration not stated)	-14.8	-4.0	100.0	105.0
COc1ccc(C)cc1S(=O)(=O)NCC(c1ccco1)N1CCc2ccccc2C1 (configuration not stated)	-28.4	-0.2	102.0	106.0
CCOC(=O)N1CCC(n2ccc3nc(SC)ncc3c2=O)CC1	6.8	11.9	100.0	102.0
CCCC(=O)N(Cc1ccccn1)c1nc2ccccc2s1	-11.5	6.8	102.0	103.0
CCOC(=O)c1oc2ccccc2c1COC(=O)CNC(=O)c1ccc2c(c1)OCO2	-13.2	-2.2	102.0	106.0
Cc1nnsc1C(=O)N(C)c1ccccc1	-3.0	3.8	103.0	102.0
Cc1ccc(C2=NN(C(=O)COC(=O)[C@H](Cc3ccccc3)N3C(=O)c4ccccc4C3=O)C(c3ccco3)C2)cc1 (some centres not stated)	-4.7	17.7	105.0	111.0
CN(C)c1cccc(C(=O)OCC(=O)c2ccc(F)cc2)c1	.	-1.8	105.0	108.0
Cc1ccc(-n2c(CCC(=O)OCC(=O)NC3CCS(=O)(=O)C3)nc3ccccc3c2=O)cc1 (configuration not stated)	-8.4	12.4	102.0	107.0
COc1ccc2c(=O)c(-c3cc4ccccc4o3)coc2c1	11.0	2.2	101.0	101.0
CCC(Sc1ccc2nnc(-c3ccc(C)cc3)n2n1)C(=O)O (configuration not stated)	2.6	30.4	103.0	106.0
Cc1ccc(S(=O)(=O)c2ccc(C)cc2)cc1	-9.8	-12.0	104.0	108.0
Cc1c(C(=O)Nc2ccccc2)cc(-c2ccccc2)n1-c1ccccc1	0.2	6.0	102.0	101.0

Compounds shown so far that have an aryl methoxy group (4):
SMILES	Mtb MenB inh	MbtI inh	Polio RdRp inh	Polio RdRp inh intensity
CCN(CC)Cc1c(O)ccc2cc(-c3ccc(OC)c(OC)c3)c(=O)oc12	-109.0	-55.5	93.0	117.0
COc1cc2c(cc1OC)C1CCCN1C(C)(C)C2 (configuration not stated)	-13.8	12.8	101.0	98.0
COc1ccc(C)cc1S(=O)(=O)NCC(c1ccco1)N1CCc2ccccc2C1 (configuration not stated)	-28.4	-0.2	102.0	106.0
COc1ccc2c(=O)c(-c3cc4ccccc4o3)coc2c1	11.0	2.2	101.0	101.0

Next section
SMILES	Mtb MenB inh	MbtI inh	Polio RdRp inh	Polio RdRp inh intensity
O=C(O)c1cc2ccc3c(c2oc1=O)CN(c1ccc(Cl)cc1)CO3	-65.7	117.3	98.0	99.0
CCCCNC(=O)N1CCCCC1	-3.3	-0.2	102.0	103.0
O=C(NCC1CCCO1)c1ccc(/C=N/O)nc1 (configuration not stated)	-16.6	-5.4	102.0	98.0
O=C(NC1CCCC1)C1CCN(S(=O)(=O)c2ccc3nc(-c4ccccc4)[nH]c3c2)CC1	0.8	-10.4	98.0	97.0
Cn1c(=O)c2cc3c(=O)n(C)c(=O)c3cc2c1=O	-3.0	-3.4	101.0	101.0
CCCNC(=O)[C@H]1O[C@@H]1C(=O)N[C@H](C(=O)N1CCC[C@H]1C(=O)OC)C(C)CC (some centres not stated)	.	-23.9	101.0	101.0
Cc1nc2c(Cl)cc(Cl)cc2[nH]1	-43.4	0.2	102.0	104.0
OC1CCN(Cc2cccc3ccccc23)CC1	-7.4	-5.3	100.0	105.0
O=C1CC(Nc2ccccc2)C(=O)N1c1ccccc1Cl (configuration not stated)	-8.1	.	107.0	113.0
CS(=O)(=O)Nc1ccccc1C(=O)NCCN1CCOCC1	4.9	-405.0	98.0	103.0
Cc1cc(F)ccc1S(=O)(=O)Nc1ccc2oc3c(c2c1)C(=O)CC(C)(C)C3	1.7	6.9	100.0	100.0
CCSC1(SCC)N=C(N)C2(C#N)C(c3ccc(OC)cc3)C12C#N (configuration not stated)	-18.4	28.6	104.0	104.0
CC(C)NCC(O)Cn1c2c(c3ccccc31)CCc1c-2cnn1-c1ccccc1 (configuration not stated)	-62.6	-117.8	99.0	101.0
Cc1cccc(-c2noc(-c3ccccc3C(=O)NCc3cccnc3)n2)c1	-29.8	-15.5	98.0	100.0
Cc1ccc(NC(=O)C(C#N)Cc2ccncc2)cc1C (configuration not stated)	-42.1	-1.3	102.0	103.0
NC1(CN2CCCCC2)CCCCC1	-70.5	-8.3	106.0	102.0
O=c1oc2ccccc2c(O)c1Cc1c(O)c2ccccc2oc1=O	-13.2&4.9	-1.4&-8.5&-5.1	97.0&100.0	106.0&100.0
Cc1cc(NC(=O)c2sccc2C)n(CCOC(=O)c2sccc2C)n1	7.5	-3.0	98.0	105.0
CCc1cccc(C)c1NC(=O)CN(C)C1=NS(=O)(=O)c2ccccc21	-3.6	3.0	100.0	102.0
Cn1c(C(=O)N2CCC(C(=O)NCc3ccccc3Cl)CC2)cc2oc3ccccc3c21	-5.3	-6.5	101.0	101.0
Cc1c(C=Nc2ccc(Cl)cc2)c(O)n(C)c(=O)c1C#N	-2.6	-14.2	41.0	183.0
COc1ccc2c(C)cc(=O)[nH]c2c1	7.5	-51.7&-12.3	102.0&99.0	100.0&102.0
O=C(Cc1cccs1)NC1C(=O)N2C(C(=O)[O-])=C(C[n+]3ccccc3)CSC12 (configuration not stated)	0.1	-16.8	99.0	99.0
CC(C)=NNC(=O)CNc1ccccc1Cl	-19.5	0.3	101.0	102.0
CCOC(=O)c1c(C)n(CCO)c2ccc(O)cc12	4.5	5.3	102.0	100.0
Cc1ccc(NC(=O)c2sc3nc(N)c(C#N)cc3c2N)cc1	-15.6	6.0	101.0	103.0
CCC(C(=O)NCc1ccco1)n1nc(C)c2sc3ccccc3c2c1=O (configuration not stated)	-2.4	-2.0	104.0	105.0
COCCn1c(O)c(C=NCCn2c(C)nc3ccccc32)c(=O)[nH]c1=S	-22.6	2.1	152.0	189.0
CC(=O)Oc1ccc(OC(C)=O)cc1	2.7	12.2	107.0	101.0
Cc1ccc(/C=N\N2CCN(c3ccccc3)CC2)cc1	8.2	-0.2	104.0	102.0
Cc1ccc(NC(N)=O)cc1	15.0	-7.2	106.0	108.0
Cn1c(C(=O)O)c(CC(=O)N2CCN(Cc3ccccc3)CC2)c2ccccc21	0.6	-2.5	101.0	100.0
CC(C)Cn1cnc2c(c(-c3ccccc3)c(-c3ccccc3)n2Cc2ccco2)c1=N	-16.2	-15.3	100.0	98.0
Cc1cc(C)cc(C(=O)N(C(C)C)C(C)C)c1	-22.6	-11.1	100.0	102.0
Cc1ccc(C(=O)NC(C)c2ccc(S(N)(=O)=O)cc2)s1 (configuration not stated)	-12.2	0.6	100.0	103.0
C=CCn1c(=O)/c(=C/c2ccc3c(c2)OCO3)s/c1=C(/C#N)C(=O)C(C)(C)C	-23.6	-7.8	46.0	235.0
CN1C(=O)CS/C1=C\C(=O)c1cccs1	-16.1	4.9	.	.
COc1cc(CC#N)ccc1C	0.7	2.9	98.0	97.0
CSc1nnc(C2CCN(C(=O)N3CCCC3)CC2)n1C	16.5	-5.0	100.0	103.0
O=c1n(Cc2ccccc2)c2ccccc2n1Cc1ccccc1	-22.2	10.1	101.0	102.0
O=C(CN1/C(=C(/O)c2ccccc2)C(=O)c2ccccc2S1(=O)=O)c1ccccc1	-47.7	8.8	103.0	99.0
O=S(=O)(c1ccccc1)N1CCc2ccccc2C1	-8.2	1.6	102.0	104.0
OCC(O)CNC(=S)NC1CCCCC1 (configuration not stated)	-6.8	-20.6	102.0	104.0
CC(N)=NCc1cccc(CN)c1	-13.9	-10.8	103.0&103.0	104.0&103.0
CC12CNC3(CO)CC1CCC32C (configuration not stated)	-17.7	-2.5	103.0	111.0
CSc1sc(C(=O)N/N=C/c2cccs2)c2c1C(O)CCC2 (configuration not stated)	-8.3	-40.9	101.0	100.0
CCCCOc1cccc(C(=O)N2CCCCC2C)c1 (configuration not stated)	1.3	-13.9	100.0	102.0
COC(=O)c1ccc(COC(=O)c2ccccc2C(F)(F)F)cc1	.	5.9	102.0	100.0
O=C(OCc1cc(=O)oc2cc3c(cc12)CCC3)C1CC(=O)N(Cc2ccco2)C1 (configuration not stated)	-27.3	38.5	99.0	106.0
CC1CCCC(NC(=O)COC(=O)c2ccc(Br)cc2)C1C (configuration not stated)	.	-5.1	101.0	103.0

3 compounds from above with just Polio RdRp inh and Mtb MenB inh:
| Structure | Polio RdRp inh | Mtb MenB inh |
| --- | --- | --- |
| CCCCOc1cccc(C(=O)N2CCCCC2C)c1 (configuration not stated) | 100.0 | 1.3 |
| COC(=O)c1ccc(COC(=O)c2ccccc2C(F)(F)F)cc1 | 102.0 | . |
| O=C(CN1/C(=C(/O)c2ccccc2)C(=O)c2ccccc2S1(=O)=O)c1ccccc1 | 103.0 | -47.7 |

Other results:
SMILES	Mtb MenB inh	MbtI inh	Polio RdRp inh	Polio RdRp inh intensity
CCOC(=O)c1c(Nc2ccc(Cl)cc2)cc(C)nc1C	-2.3	7.8	103.0	101.0
CSC1=N/C(=C/c2cccnc2)C(=O)N1Cc1ccccc1	-8.3	-86.6	103.0	105.0
CC(=O)NC(C)(C)C1CC=C(C)/C(=N\O)C1 (configuration not stated)	0.2	-12.4	100.0	101.0
Cn1c2c(c3cc(C4CCCCC4)ccc31)C(=O)CCC2	-5.8	.	101.0	110.0
O=C(c1cccc(C(F)(F)F)c1)N1CCN(c2ccc(N3CCCCCC3)nn2)CC1	7.2	-4.1	99.0	100.0
Cc1ccc2onc(CNC(=O)NCCN3CCc4ccccc4C3)c2c1	-21.5	-17.6	104.0	103.0
Cc1ccc(NC(=O)C(C)Sc2nnc(C)n2C)cc1 (configuration not stated)	-2.3	-9.1	102.0	103.0
Cc1cccc(C)c1NC(=O)c1cnc(NC2CCCCC2)cc1C(F)(F)F	-6.5	189.1	104.0	113.0
NC(=S)Nc1ccc(C(F)(F)F)cc1Cl	-19.3	14.6	105.0	117.0
CN(N=O)C(=O)NC1[C@@H](O)OC(CO)[C@@H](O)[C@H]1O (some centres not stated)	3.1	0.5	100.0	100.0
CCC(C)OC(=O)CSc1ncnc2sc3c(c12)CCC(C)C3 (configuration not stated)	-13.3	-2.8	100.0	97.0
CCS(=O)(=O)N1CCc2cc(C(=O)COC(=O)c3cn(C)c4ccccc34)ccc21	-32.6	1.9	106.0	102.0
